ID4 binder: binders of human ID4 protein, primary screen, biochemical, small molecule microarray, single point; Flag-ID4 binding, fluorescence F/B; calls only; actives 1.2% (n = 31,000);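 active = spot signal over background at p below 0.07 in all four prints; compounds were printed on slides so no solution concentration is given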;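 note: a binder raises fluorescence above local background on the spot; about 2 pmol printed per array spot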
Target sequence (P47928 whole entry, looked up): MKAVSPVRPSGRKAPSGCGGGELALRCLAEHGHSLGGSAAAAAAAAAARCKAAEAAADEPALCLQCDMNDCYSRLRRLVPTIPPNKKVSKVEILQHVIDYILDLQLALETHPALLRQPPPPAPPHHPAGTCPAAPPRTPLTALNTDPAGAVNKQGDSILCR
p53 mut binder: binders of human mutant p53, primary screen, biochemical, small molecule microarray, anti-GST fluorescence; calls only; small molecule microarray binding; mutant tumor protein p53 (GST-tagged), Homo sapiens; actives 0.4% (n = 17,000); AID 624136, 2012;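 active = compounds whose four printed spots each glow above background more than chance allows, each with a p-value under 7%; compounds were printed on slides so no solution concentration is given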;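 note: about 2 pmol printed per array spot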
STAT3 binder: STAT3 binders, primary screen, biochemical, small molecule microarray, single point, set 2; His-STAT3 binding, anti-His fluorescence; calls only; actives 0.2% (n = 17,000);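 active = compounds whose four printed spots each show fluorescence over background unusually high for their array block, chance value under 7%; compounds were printed on slides so no solution concentration is given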;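 note: about 2 pmol printed per array spot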
Target sequence (P40763 whole entry, looked up): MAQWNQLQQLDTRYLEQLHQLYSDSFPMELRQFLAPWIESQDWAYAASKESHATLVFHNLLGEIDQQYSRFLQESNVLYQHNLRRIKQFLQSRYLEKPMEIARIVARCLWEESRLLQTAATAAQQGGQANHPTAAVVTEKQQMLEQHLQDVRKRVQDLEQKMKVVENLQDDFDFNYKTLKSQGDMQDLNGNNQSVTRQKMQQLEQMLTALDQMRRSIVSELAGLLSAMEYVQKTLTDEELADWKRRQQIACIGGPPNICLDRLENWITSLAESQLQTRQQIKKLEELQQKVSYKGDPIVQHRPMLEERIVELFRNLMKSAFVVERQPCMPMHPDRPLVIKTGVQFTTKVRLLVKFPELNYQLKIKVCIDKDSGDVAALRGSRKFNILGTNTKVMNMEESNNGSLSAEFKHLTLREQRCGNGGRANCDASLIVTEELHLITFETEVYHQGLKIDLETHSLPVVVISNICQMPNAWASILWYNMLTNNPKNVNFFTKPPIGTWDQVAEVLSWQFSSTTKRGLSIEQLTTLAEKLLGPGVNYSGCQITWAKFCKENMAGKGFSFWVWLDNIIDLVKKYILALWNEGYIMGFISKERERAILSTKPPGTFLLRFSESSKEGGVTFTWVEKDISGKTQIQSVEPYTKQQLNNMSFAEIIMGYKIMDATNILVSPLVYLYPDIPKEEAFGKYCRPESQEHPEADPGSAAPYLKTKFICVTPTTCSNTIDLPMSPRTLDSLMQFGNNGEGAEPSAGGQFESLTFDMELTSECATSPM
Myc binder: binders of human c-Myc, primary screen, biochemical, small molecule microarray, anti-His fluorescence. His-c-Myc binding. calls only. actives 1.5% (n = 17,000). AID 624141, 2012;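 active = spot fluorescence over background with P-value below 7% in all four replicate spots, showing protein binding; compounds were printed on slides so no solution concentration is given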;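 note: score is binary with 100 for all four spots passing and 0 otherwise; about 2 pmol printed per array spot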
Calls only; i = inactive; . = no result given; + = active, no number.

| canonical_smiles | ID4 binder | p53 mut binder | STAT3 binder | Myc binder |
| --- | --- | --- | --- | --- |
| C[C@H]1CN([C@@H](C)CO)C(=O)Cc2cc(NC(=O)Cc3ccccc3)ccc2O[C@H]1CN(C)C(=O)Nc1ccc2c(c1)OCO2 | i | i | i | i |
| C=CCNC(=O)[C@H]1[C@@H]2C(=O)O[C@@H](c3ccccc3)[C@@H](c3ccccc3)N2[C@@H](c2ccc(OCCO)cc2)[C@]12C(=O)Nc1ccc(C#CC3(O)CCCCCC3)cc12 | i | i | i | i |
| C[C@H](CO)N1C[C@H](C)[C@@H](CN(C)S(=O)(=O)c2ccccc2)Oc2ccc(NC(=O)Cn3cnnn3)cc2CC1=O | i | i | i | i |
| NC(=O)[C@H]1[C@@H]2C(=O)O[C@@H](c3ccccc3)[C@@H](c3ccccc3)N2[C@@H](c2ccc(OCCO)cc2)[C@]12C(=O)Nc1ccc(C#CC3=CCCCC3)cc12 | i | i | i | i |
| C[C@H]1CN([C@@H](C)CO)C(=O)Cc2cc(NS(C)(=O)=O)ccc2O[C@@H]1CN(C)Cc1ccc(Cl)c(Cl)c1 | . | i | i | i |
| Cc1cc(C(=O)O)ccc1NC(=O)CCCC(=O)O | i | i | i | i |
| Cc1noc(C)c1NC(=O)Nc1ccc2c(c1)C(=O)N([C@H](C)CO)C[C@@H](C)[C@H](CN(C)C)O2 | i | i | i | i |
| O=C(Nc1ccccc1C(=O)NCC1CCCO1)c1ccco1 (stereo not drawn) | i | i | i | i |
| CCCc1cc2c(-c3ccccc3)cc(=O)oc2cc1OCc1ccc(C(=O)O)o1 | i | i | i | i |
| O=C(CCO[C@@H]1O[C@H](CO)[C@@H](O)[C@H](O)[C@H]1O)c1ccc(O)cc1 | . | i | i | i |
| C[C@H]1CN([C@@H](C)CO)C(=O)c2cccc(NC(=O)NC3CCCCC3)c2O[C@H]1CN(C)Cc1ccccc1 | . | i | i | i |
| C[C@H]1CN([C@@H](C)CO)C(=O)Cc2cc(NS(=O)(=O)c3cccs3)ccc2O[C@@H]1CN(C)Cc1ccc(-c2ccccc2)cc1 | . | i | i | i |
| C[C@@H]1CCCCO[C@H](CN(C)C(=O)CCC(F)(F)F)[C@@H](C)CN([C@H](C)CO)C(=O)c2cc(NC(=O)c3ccncc3)ccc2O1 | i | i | i | i |
| Cc1noc(C)c1S(=O)(=O)Nc1cccc2c1O[C@H](CN(C)C(=O)Nc1ccc(C(F)(F)F)cc1)[C@H](C)CN([C@H](C)CO)C2=O | i | i | i | i |
| CC1(C)CC[C@]2(C(=O)OC3OC(CO)C(OC4OC(CO)C(O)C(O)C4O)C(O)C3O)CC[C@]3(C)C(=CCC4[C@@]5(C)CC[C@H](OC6OC(C(=O)O)C(O)C(O)C6O)C(CO)(CO)C5CC[C@]43C)[C@@H]2C1 (stereo partly drawn) | i | i | i | i |
| CC1OC(OC2C(O)C(C)OC(OCC3OC(OC4C(C)OC(Oc5cc(O)c6c(=O)c(O)c(-c7ccc(O)c(O)c7)oc6c5)C(O)C4O)C(O)C(O)C3OC(=O)/C=C/c3ccc(O)cc3)C2O)C(O)C(O)C1O (stereo not drawn) | i | i | i | i |
| C[C@H]1CN([C@@H](C)CO)C(=O)Cc2cc(NS(=O)(=O)c3cccs3)ccc2O[C@H]1CN(C)S(=O)(=O)c1ccc(Cl)cc1 | i | i | i | i |
| C[C@@H]1CN([C@H](C)CO)C(=O)c2cc(NC(=O)CCN3CCOCC3)ccc2O[C@H]1CN(C)Cc1ccc(C(F)(F)F)cc1 | i | i | i | i |
| CCn1cc(C(C)NC(=S)Nc2cccc([N+](=O)[O-])c2)c(C)n1 (stereo not drawn) | i | i | i | + |
| C[C@H](CO)N1C[C@H](C)[C@H](CN(C)Cc2ccc(Cl)c(Cl)c2)Oc2c(NC(=O)c3nc4ccccc4s3)cccc2C1=O | . | i | i | i |
| C[C@@H]1CN([C@@H](C)CO)C(=O)c2cc(NC(=O)NC3CCCCC3)ccc2O[C@@H]1CN(C)C(=O)NC1CCCCC1 | i | i | i | i |
| C[C@@H]1CCCCO[C@H](CN(C)S(=O)(=O)c2ccccc2)[C@@H](C)CN([C@H](C)CO)C(=O)c2cc(NC(=O)CCCN(C)C)ccc2O1 | i | i | i | i |
| C[C@@H]1CCCCO[C@@H](CN(C)C)[C@@H](C)CN([C@@H](C)CO)C(=O)c2cc(NC(=O)Nc3cccc4ccccc34)ccc2O1 | i | i | i | i |
| C[C@H](CO)N1C[C@H](C)[C@@H](CN(C)CC2CCCCC2)Oc2ccc(N(C)C)cc2CC1=O | i | i | i | i |
| C[C@@H]1CCCCO[C@@H](CN(C)Cc2ccccc2)[C@@H](C)CN([C@H](C)CO)C(=O)c2cc(NC(=O)c3ccccc3)ccc2O1 | . | i | i | i |
| C[C@H](CO)N1C[C@H](C)[C@@H](CN(C)Cc2ccncc2)Oc2c(NC(=O)c3nc4ccccc4s3)cccc2C1=O | i | i | i | i |
| Cc1noc(C)c1S(=O)(=O)Nc1ccc2c(c1)CC(=O)N([C@H](C)CO)C[C@H](C)[C@H](CN(C)S(C)(=O)=O)O2 | . | i | i | i |
| C[C@@H]1CN([C@H](C)CO)C(=O)c2cccc(NC(=O)c3ccncc3)c2O[C@H]1CN(C)Cc1ccc(Oc2ccccc2)cc1 | i | i | i | i |
| CCOC(=O)c1cc(CC)sc1N1C(=O)CC(Sc2ncccc2C(=O)O)C1=O (stereo not drawn) | i | i | i | i |
| CNc1cc2ncnc(Nc3cccc(Br)c3)c2cc1N | . | i | i | i |

(cont.)
| canonical_smiles | ID4 binder | p53 mut binder | STAT3 binder | Myc binder |
| --- | --- | --- | --- | --- |
| Cc1noc(C)c1S(=O)(=O)Nc1ccc2c(c1)C(=O)N([C@@H](C)CO)C[C@@H](C)[C@H](CN(C)C)O2 | i | i | i | i |
| CNC[C@@H]1Oc2ccc(NC(=O)NC3CCCCC3)cc2C(=O)N([C@H](C)CO)C[C@@H]1C | i | i | i | i |
| C[C@@H]1CC[C@]2(C(=O)O)CC[C@]3(C)C(=CCC4[C@@]5(C)CC[C@H](O)[C@](C)(C(=O)O)C5CC[C@]43C)C2[C@]1(C)O (stereo partly drawn) | i | i | i | i |
| C[C@@H]1CN([C@@H](C)CO)C(=O)c2cc(NC(=O)CCC(F)(F)F)ccc2O[C@@H](C)CCCCO[C@@H]1CN(C)Cc1ccc2c(c1)OCO2 | . | i | i | i |
| O=C(Cn1c(-c2ccccn2)nc2ccccc21)NCCN1CCOCC1 | i | i | i | i |
| CNC[C@H]1Oc2ccc(NC(=O)CCN3CCOCC3)cc2CC(=O)N([C@H](C)CO)C[C@@H]1C | i | i | i | i |
| C[C@@H]1CCCCO[C@H](CN(C)S(=O)(=O)c2cn(C)cn2)[C@@H](C)CN([C@H](C)CO)C(=O)c2cc(NS(=O)(=O)c3cn(C)cn3)ccc2O1 | i | i | i | i |
| C[C@H]1CN([C@@H](C)CO)C(=O)Cc2cc(NS(=O)(=O)c3cn(C)cn3)ccc2O[C@H]1CN(C)CC1CC1 | i | i | i | i |
| C[C@@H]1CN([C@@H](C)CO)C(=O)Cc2cc(NS(=O)(=O)c3ccccc3)ccc2O[C@H]1CN(C)C(=O)NC1CCCCC1 | i | i | i | i |
| COc1ccc(S(=O)(=O)N(C)C[C@H]2Oc3c(NC(=O)C4CC4)cccc3C(=O)N([C@@H](C)CO)C[C@H]2C)cc1 | i | i | i | i |
| Cc1noc(C)c1NC(=O)N(C)C[C@@H]1Oc2ccc(NC(=O)Cc3ccccc3)cc2C(=O)N([C@H](C)CO)C[C@H]1C | i | i | i | i |
| C[C@@H]1CCCCO[C@H](CN(C)C(=O)c2ccccc2)[C@@H](C)CN([C@H](C)CO)C(=O)c2cc(NS(C)(=O)=O)ccc2O1 | i | i | i | i |
| C[C@@H]1CN([C@@H](C)CO)C(=O)c2cc(NC(=O)Nc3ccc4c(c3)OCO4)ccc2O[C@@H]1CN(C)Cc1ccc2c(c1)OCO2 | . | i | i | i |
| Cc1cc(C)c(S(=O)(=O)NCc2ccccn2)cc1C | i | i | i | i |
| C[C@@H]1CN([C@H](C)CO)C(=O)c2cc(NC(=O)Nc3ccc4c(c3)OCO4)ccc2O[C@@H]1CN(C)C(=O)NC1CCCCC1 | i | i | i | i |
| C=CCn1c(=O)c(C(=O)NCc2ccccn2)c(O)c2ccccc21 | i | i | i | i |
| C[C@@H]1CCCCO[C@@H](CN(C)Cc2ccncc2)[C@@H](C)CN([C@@H](C)CO)C(=O)c2cc(NC(=O)Nc3cccc4ccccc34)ccc2O1 | i | i | i | i |
| COc1ccccc1C1C(C(=O)c2ccco2)C(=O)C(=O)N1c1cc(C)on1 (stereo not drawn) | i | i | i | i |
| C[C@H]1CN([C@@H](C)CO)C(=O)c2cccc(NC(=O)Nc3ccc(C(F)(F)F)cc3)c2O[C@@H]1CN(C)S(=O)(=O)c1cn(C)cn1 | i | i | i | i |
| O=C(CC1(O)C(=O)N(Cc2ccccc2)c2ccccc21)c1ccccc1[N+](=O)[O-] (stereo not drawn) | i | i | i | i |
| C[C@H](CO)N1C[C@H](C)[C@@H](CN(C)Cc2ccc(C(F)(F)F)cc2)Oc2ccc(NC(=O)C3CC3)cc2CC1=O | i | i | i | i |
| CNC[C@@H]1Oc2ccc(NS(=O)(=O)c3cn(C)cn3)cc2CC(=O)N([C@H](C)CO)C[C@H]1C | i | i | i | i |
| CCOC(=O)c1c(NC(=O)COc2cc(C)ccc2C)sc(C)c1C | i | i | i | i |
| C/C=C/[C@@H](CC(=O)N1Cc2ccccc2C[C@H]1CO)[Si](C)(C)c1ccc(OC)cc1 | i | i | i | i |
| COc1cc2c(cc1O)C1Cc3ccc(O)c(OC)c3CN1CC2 (stereo not drawn) | i | i | i | i |
| CC(C)NC(=O)N(C)C[C@@H]1Oc2ccc(NC(=O)CCC(F)(F)F)cc2C(=O)N([C@H](C)CO)C[C@@H]1C | i | i | i | i |
| CNC[C@@H]1Oc2ccc(NC(=O)Cn3cnnn3)cc2CC(=O)N([C@@H](C)CO)C[C@@H]1C | i | i | i | i |
| CNC(=O)C1=C[C@H](c2ccc(C(=O)OC)cc2)C[C@H](OCc2ccc(CO)cc2)O1 | i | i | i | i |
| Cc1ccc2nc(-c3cccnc3)cc(C(=O)Nc3sc4c(c3C(N)=O)CCCCCC4)c2c1 | i | i | i | i |
| COCCNc1ncnc2c1cnn2Cc1ccc(C)cc1 | i | i | i | i |

Later entries:
| canonical_smiles | ID4 binder | p53 mut binder | STAT3 binder | Myc binder |
| --- | --- | --- | --- | --- |
| Cc1ccc(Oc2coc3cc(OCC(=O)Nc4ccccc4C(F)(F)F)ccc3c2=O)cc1 | i | i | i | i |
| CNC[C@H]1Oc2c(NC(=O)Nc3cccc4ccccc34)cccc2C(=O)N([C@H](C)CO)C[C@H]1C | i | i | i | i |
| CNC[C@@H]1OCCCC[C@H](C)Oc2ccc(NC(=O)c3ccncc3)cc2C(=O)N([C@H](C)CO)C[C@@H]1C | i | i | i | i |
| C[C@@H]1CN([C@H](C)CO)C(=O)c2cc(NC(=O)CCC(F)(F)F)ccc2O[C@@H](C)CCCCO[C@H]1CN(C)C(=O)c1ccncc1 | i | i | i | i |
| CCCCCCCCC/C=C/C(=O)CCc1ccc(O)c(OC)c1 | . | i | i | i |
| C/C(=C/CCC(CO)C1CCC2(C)C3CCC4C(C)(C)C(OC5OC(CO)C(O)C(O)C5O)CC(O)C45CC35CCC12C)COC1OC(CO)C(O)C(O)C1O (stereo not drawn) | i | i | i | i |
| O=C(NCc1cccnc1)C1CC(c2ccccc2Cl)=NO1 (stereo not drawn) | i | i | i | i |
| CCOc1ccc(C(=O)c2oc3ccccc3c2NC(=O)c2cc3ccccc3oc2=O)cc1 | i | i | i | i |
| COc1ccc(S(=O)(=O)Nc2cccc3c2O[C@@H](CN(C)Cc2ccc(Cl)c(Cl)c2)[C@H](C)CN([C@@H](C)CO)C3=O)cc1 | . | i | i | i |
| Cc1noc(C)c1S(=O)(=O)Nc1cccc2c1O[C@H](CN(C)Cc1ccc(C(=O)O)cc1)[C@@H](C)CN([C@H](C)CO)C2=O | i | i | i | i |
| C[C@@H]1CN([C@H](C)CO)C(=O)c2cc(NC(=O)Nc3ccc4c(c3)OCO4)ccc2O[C@@H]1CN(C)C(=O)Nc1ccc2c(c1)OCO2 | i | i | i | i |
| C[S+](O)c1ccc(CSc2nc(-c3ccc(F)cc3)c(-c3ccncc3)[nH]2)cc1 (stereo not drawn) | i | i | i | i |
| CC(C)NC(=O)N(C)C[C@@H]1Oc2c(cccc2N(C)C)C(=O)N([C@H](C)CO)C[C@H]1C | i | i | i | i |
| OCCN(CCO)Cc1ccc(Br)cc1 | i | + | i | i |

An excerpt of the results above, for reference:
| canonical_smiles | ID4 binder | p53 mut binder | STAT3 binder | Myc binder |
| --- | --- | --- | --- | --- |
| Cc1noc(C)c1S(=O)(=O)Nc1cccc2c1O[C@H](CN(C)Cc1ccc(C(=O)O)cc1)[C@@H](C)CN([C@H](C)CO)C2=O | i | i | i | i |
| C[C@@H]1CN([C@H](C)CO)C(=O)c2cc(NC(=O)Nc3ccc4c(c3)OCO4)ccc2O[C@@H]1CN(C)C(=O)Nc1ccc2c(c1)OCO2 | i | i | i | i |
| C[S+](O)c1ccc(CSc2nc(-c3ccc(F)cc3)c(-c3ccncc3)[nH]2)cc1 (stereo not drawn) | i | i | i | i |
| CC(C)NC(=O)N(C)C[C@@H]1Oc2c(cccc2N(C)C)C(=O)N([C@H](C)CO)C[C@H]1C | i | i | i | i |
| OCCN(CCO)Cc1ccc(Br)cc1 | i | + | i | i |

An excerpt. The share of hits here may be higher or lower than overall.
